# High-throughput results (PubChem BioAssay)
# PV pol inh: poliovirus RdRp elongation inhibitors, primary screen, biochemical, fluorescence polarization, total intensity; % elongation, % (compound at 16.7 µg/mL); Genome polyprotein (Poliovirus type 1 (strain Mahoney)), P03300; poliovirus polymerase elongation; stronger effect = lower value; actives 0.66% (n = 150,000); in the data active = % elongation below about 90%; also: some results filed as inactive read as strong as hits
# Target sequence (P03300 1749-2209 limits assumed): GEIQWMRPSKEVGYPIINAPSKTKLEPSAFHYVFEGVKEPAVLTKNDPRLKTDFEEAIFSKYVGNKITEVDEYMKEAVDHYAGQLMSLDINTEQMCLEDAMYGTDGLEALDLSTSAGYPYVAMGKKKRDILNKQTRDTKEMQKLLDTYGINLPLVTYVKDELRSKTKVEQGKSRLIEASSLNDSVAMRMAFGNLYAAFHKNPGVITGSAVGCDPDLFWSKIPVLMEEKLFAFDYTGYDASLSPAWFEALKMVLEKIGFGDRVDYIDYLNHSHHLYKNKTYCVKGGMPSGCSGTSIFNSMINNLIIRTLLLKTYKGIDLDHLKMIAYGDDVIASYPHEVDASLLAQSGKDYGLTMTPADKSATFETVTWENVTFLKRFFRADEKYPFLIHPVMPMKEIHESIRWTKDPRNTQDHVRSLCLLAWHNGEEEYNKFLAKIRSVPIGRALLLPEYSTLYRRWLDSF
# PV pol inh intensity: further read-out of PV pol inh, marked with its call; % elongation; measured here: total intensity read-out; formula for this scale not given here;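 total fluorescence in place of polarization; lower means less elongation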
# The depositor's hits bear a star. Some of the compounds tested, so the mix of outcomes need not match the whole.
SMILES,PV pol inh,PV pol inh intensity
CCc1ccc2c(c1)-c1ccccc1S(=O)(=O)N2CC(=O)N1CCCCC1,98.0,97.0
CCOc1ccccc1NC(=O)Cn1c(=O)n(CCC(=O)NCc2ccc3c(c2)OCO3)c(=O)c2ccccc21,108.0,95.0
CCOc1cccc(CC(=O)N2CCc3c([nH]c4ccccc34)C2c2ccccc2)c1OCC (stereo unspecified),108.0,112.0
CCOc1ccccc1NC(=O)C(CC)Sc1nc2ccncc2[nH]1 (stereo unspecified),98.0,101.0
Cc1ccc(C)c(NC(=O)CCCn2nc(C)c3sc4ccccc4c3c2=O)c1,111.0,109.0
O=C(NCCc1csc2nc(-c3cccc(F)c3)nn12)c1ccc(Br)o1,112.0,117.0
CCCCNc1nc2c(S(=O)(=O)c3ccc(C)c(C)c3)nnn2c2ccsc12,110.0,109.0
Cc1nc(N2CCCC2)c2c(C(=O)N3CCN(c4ccccc4)CC3)c(C)oc2n1,110.0,114.0
COc1ccc(CNC(=O)c2cc3cccc4c3n2CC(C)S4)cc1OC (stereo unspecified),99.0,102.0
CCc1ccccc1NC(=O)CSc1ncc(S(=O)(=O)c2ccccc2)c(N)n1,108.0,112.0
COc1cccc(-n2c(SCc3ccccc3C)nc3c([nH]c4ccccc43)c2=O)c1,108.0,115.0
CCc1ccccc1Nc1nn2c(=O)c3ccc(C(=O)NCc4ccccc4Cl)cc3nc2s1,97.0,103.0
COc1ccc(S(=O)(=O)c2cn(C)c3cc(N4CCCC4)c(F)cc3c2=O)cc1,106.0,105.0
O=C(COc1ccccc1)NCCc1csc(-c2ccc(F)cc2)n1,102.0,108.0
O=C(O)CCn1ccc2cc(S(=O)(=O)N3CCCCCC3)ccc21,105.0,106.0
C=CCc1cccc2cc(C(=O)NCCc3c(C)[nH]c4c(C)cccc34)c(=O)oc12,106.0,109.0
CC(=O)N1c2ccc(S(=O)(=O)NCC3CCC(C(=O)Nc4cccc(F)c4)CC3)cc2CC1C (stereo unspecified),113.0,111.0
Cn1c(=O)nc2n(-c3ccc(Br)cc3)c3cccc(Cl)c3cc-2c1=O,111.0,117.0
CCn1c(=NC(=O)c2ccc(S(=O)(=O)N3CCCCC3)cc2)sc2cccc(OC)c21,101.0,94.0
Cc1ccc(CNC(=O)c2cc(-c3ccc(C)c(C)c3)nc3ccccc23)cc1,115.0,114.0
Cc1ccc(N2CC(NC(=O)C(=O)c3c[nH]c4ccccc34)CC2=O)cc1 (stereo unspecified),103.0,107.0
COc1ccc(-c2nn3c(-c4ccc(OC)cc4)nnc3c3ccccc23)cc1,110.0,113.0
c1ccc(N2CCN(Cc3nnc(-c4ccc5c(c4)OCO5)o3)CC2)cc1,108.0,114.0
CCc1cccc(C)c1NC(=O)C1CCN(S(=O)(=O)c2cccc3nonc23)CC1,106.0,111.0
COc1ccccc1Nc1cc(C(=O)NCCCN(C)C2CCCCC2)c2ccccc2n1,104.0,105.0

# Next records.
SMILES,PV pol inh,PV pol inh intensity
CCOC(=O)CSc1nc(-c2ccc(C)cc2C)cc(-c2ccccc2)c1C#N,101.0,110.0
Cn1c(C(=O)Nc2ccc(OC(F)(F)F)cc2)cc2c(=O)n3ccccc3nc21,105.0,110.0
CCN(CC)C(=O)c1sc(NC(=O)C2c3ccccc3Oc3ccccc32)c(C(=O)OC(C)C)c1C,104.0,98.0
CCOc1ccc(-c2nc(CSCC(=O)N3CCN(c4ccc(F)cc4)CC3)c(C)o2)cc1,107.0,99.0
COc1ccc(N(Cc2cccs2)C(=O)COc2ccc(C(C)C)cc2)cc1,105.0,106.0
O=C(CN1C(=O)C2(SCC(=O)N2c2ccccc2)c2ccccc21)NCCc1ccccc1 (stereo unspecified),106.0,98.0
COc1ccc(-n2nnc(-c3nc(-c4cccs4)no3)c2N)cc1OC,120.0,120.0
Cc1cc(F)ccc1NC(=O)Cn1c(=O)ccc2cc(S(=O)(=O)N3CCC(C)CC3)ccc21,104.0,108.0
CCCCc1nn2c(=O)cc(COC(=O)c3ccccc3NC(=O)C(C)(C)C)nc2s1,98.0,93.0
CC(C)c1cc(C(=O)NCc2ccc(F)cc2)no1,108.0,113.0
Cc1cccc(-n2c(SCc3nc(-c4ccccc4C)no3)nnc2-c2ccccc2)c1,113.0,116.0
Cc1ccc(-c2ccc(CCC(=O)O)n2-c2cccc(C)c2C)cc1,114.0,114.0
CCOCCc1nn2c(=O)cc(COC(=O)CNC(=O)c3ccc(F)cc3)nc2s1,113.0,113.0
Cc1ccccc1NC(=O)CN1C(=O)CCn2nc(-c3cccn3C)cc21,113.0,116.0
Cc1c(C)c2cc3c(c(C)c2oc1=O)OCN(CCc1ccccc1)C3,110.0,110.0
COc1ccccc1CNC(=O)c1cn(C)c2ccc(S(=O)(=O)N(C)C3CCCCC3)cc2c1=O,108.0,111.0
O=C(NCCc1csc2nc(-c3ccc(F)cc3)nn12)c1ccco1,107.0,97.0
O=C(Nc1cccc(Cl)c1)c1ccc2c(c1)CCN2S(=O)(=O)c1ccccc1,108.0,109.0
CN(c1ccc(F)cc1)S(=O)(=O)N1CCCC(C(=O)NCc2ccccc2Cl)C1 (stereo unspecified),113.0,110.0
O=C(COCc1cc(-c2cccs2)on1)Nc1ccc(OC(F)(F)F)cc1,110.0,95.0
COc1ccccc1N1CCN(C(=O)c2cc3c(=O)n(Cc4cccnc4)ccc3nc2C)CC1,105.0,113.0
COc1ccccc1-c1nnc(SCC(N)=O)o1,108.0,112.0
O=C(NCc1cccc(Cl)c1)c1ccc(NC(=O)N2CCSc3ccccc32)cc1,110.0,109.0
CC(C)c1ccc(NC(=O)CSc2nc(=O)n(Cc3ccccn3)c3c2CCC3)cc1,108.0,97.0
CCn1cc(S(=O)(=O)c2ccccc2)c(=O)c2cc(F)c(F)cc21,103.0,105.0

# The list continues.
SMILES,PV pol inh,PV pol inh intensity
CCNC(=O)CC1C(=O)N(c2ccc(F)cc2)C(=O)N1Cc1ccc(OC)c(OC)c1 (stereo unspecified),99.0,99.0
O=C(COc1ccc(F)cc1)OCc1cc(=O)n2nc(C3CCCCC3)sc2n1,110.0,110.0
CCCCNC(=O)C(CC)Sc1nnc(-c2ccc(OC)c(OC)c2)c(-c2ccc(OC)c(OC)c2)n1 (stereo unspecified),102.0,113.0
Cc1ccc(CSc2nc3ccncc3n2Cc2nc(-c3ccc(Cl)cc3)oc2C)cc1,109.0,111.0
COc1ccc(-c2nc3ccccc3s2)cc1NC(=O)COc1ccccc1C,105.0,100.0
CCC(=O)N1CCc2cc(S(=O)(=O)NCc3ccc(C)cc3)ccc21,113.0,111.0
CCOC(=O)c1ccc(N2C(=O)c3[nH]nc(-c4ccccc4)c3C2c2cccs2)cc1 (stereo unspecified),107.0,107.0
CN(c1ccccc1)S(=O)(=O)c1nnc(NC(=O)c2ccccc2)s1,111.0,112.0
Cc1c(C(=O)Nc2cccc(Cl)c2)sc2nc3n(c(=O)c12)N=C(c1cccc(Br)c1)CS3,101.0,107.0
CCc1ccc2occ(CC(=O)N(Cc3ccccc3)C3CCS(=O)(=O)C3)c2c1 (stereo unspecified),122.0,118.0
Cc1cccc(CSc2nc(=O)c3c(n2C)NC(=O)CC3c2cccc(O)c2)c1 (stereo unspecified),102.0,97.0
COCCNC(=O)Cc1ccc(NC(=O)N2CCCCc3ccccc32)cc1,111.0,98.0
CC(C)Oc1ccc(CNC(=O)C2CCN(C(=O)c3sccc3-n3cccc3)CC2)cc1,116.0,118.0
CCC1CN(C(=O)N2CCC(C(=O)N3CCN(c4ccc(F)cc4)CC3)CC2)c2ccccc2O1 (stereo unspecified),109.0,108.0
CCc1nn(C(CC)C(=O)NCc2ccc(OC)c(OC)c2)c(=O)c2cc3oc(C)cc3n12 (stereo unspecified),109.0,109.0
CNC(=O)c1ccc(-c2nc(CN3CCc4ccccc43)c(C)o2)cc1,111.0,113.0
COc1cc(NC(=O)N2CCSc3ccccc32)cc(OC)c1OC,105.0,111.0
Cc1cccc(NC(=O)C2CCN(c3nc4ccccc4[nH]3)CC2)c1C,108.0,113.0
O=C(Cn1c(=O)nc(-c2ccccc2F)c2cc(Cl)ccc21)Nc1ccccc1C(F)(F)F,108.0,106.0
CCC1CN(C(=O)N2CCC(C(=O)NCCC3=CCCCC3)CC2)c2ccccc2O1 (stereo unspecified),115.0,113.0
COc1ccc(S(=O)(=O)N2Cc3ccccc3CC2C(=O)Nc2cc(Cl)ccc2Cl)cc1 (stereo unspecified),100.0,101.0
COc1ccc(C(=O)N2CCC(C(=O)Nc3ccc(Cl)cc3)CC2)cc1,107.0,106.0
Fc1ccc(Nc2c(-c3c[nH]c4ccccc34)nc3ccccn23)cc1,102.0,105.0
Cc1ccc(N2C(=O)[C@@H]3CSC(c4ccc(Cl)cc4)N3C2=O)cc1 (stereo partly specified),105.0,107.0
CCc1ccc2nc(N3CCN(C(=O)c4ccco4)CC3)sc2c1,107.0,105.0

# (next part)
SMILES,PV pol inh,PV pol inh intensity
Cc1ccc(Cn2c(=O)n(CC3CCC(C(=O)N4CCOCC4)CC3)c(=O)c3sccc32)cc1 (stereo unspecified),105.0,111.0
COc1ccc(Nc2cc(C(=O)NCCCN3CCN(c4ccccc4F)CC3)c3ccccc3n2)c(OC)c1,109.0,107.0
O=C(Nc1ccc(-c2nc3cc(NC(=O)c4ccccc4Cl)ccc3o2)cc1)c1ccccc1Cl,105.0,101.0
Cn1cc(-c2cc3n(n2)CCC(=O)N3CCCC(=O)Nc2ccc(F)cc2F)c2ccccc21,106.0,100.0
Cc1c(Cl)cccc1-c1ccc(C(=O)Nc2ccc3oc(-c4cccnc4)nc3c2)o1,107.0,111.0
CCOc1ccc(NC(=O)c2cc(S(=O)(=O)N3CCN(c4ccccc4F)CC3)ccc2F)cc1,105.0,111.0
C=C(C)Cn1c(SCC(=O)c2ccc(Br)cc2)nc2sc3c(c2c1=O)CCCC3,107.0,105.0
COc1ccc(-n2nc3cc(C)c(NC(=O)c4ccc(-c5ccc(Cl)cc5)o4)cc3n2)cc1,107.0,109.0
Cc1cccc(OCC(=O)Nc2ccc3c(c2)nc(CCNC(=O)c2ccco2)n3C)c1,106.0,100.0
CCOc1cc(C(=O)NCc2nc(-c3cccc(C)c3)no2)cc(OCC)c1OCC,105.0,111.0
O=C(COc1ccccc1Cl)N1CCN(CCc2ccccn2)CC1,112.0,100.0
COc1ccc(CNC(=O)c2cc3c(=O)[nH]c4ccccc4c3s2)cc1,109.0,108.0
CSc1cccc(NC(=O)CC(c2cccs2)N2Cc3ccccc3C2=O)c1 (stereo unspecified),108.0,92.0
CCS(=O)(=O)NCC(c1ccco1)N1CCN(c2ccccc2)CC1 (stereo unspecified),107.0,115.0
O=C(NCCS(=O)(=O)N1CCN(c2ccc(F)cc2)CC1)c1ccccc1Br,107.0,111.0
CC(=O)c1cccc(NC(=O)CSc2nc3c(c(=O)[nH]2)CCC3)c1,105.0,104.0
CCOC(=O)c1cnc2c(ccc3ccccc32)c1Nc1cccc(OC)c1,106.0,107.0
COc1ccc(C(=O)Nc2ccc(-c3nc4ncccc4o3)cc2C)cc1Br,99.0,87.0
O=C(CSc1nc(Nc2ccccc2)c2ccccc2n1)c1ccc(Cl)cc1,103.0,105.0
COc1cc(OC)cc(-c2nc3nc(C)c(CCC(=O)Nc4ccc(C)cc4)c(C)n3n2)c1,107.0,107.0
Cc1ccc(-c2noc(-c3ccc(N4CCN(C)CC4)c([N+](=O)[O-])c3)n2)cc1,104.0,110.0
COc1cccc(C(=O)Nc2ccc3oc(-c4ccc5ccccc5c4)nc3c2)c1,102.0,107.0
COc1cccc(C2c3c(-c4ccccc4O)n[nH]c3C(=O)N2Cc2cccnc2)c1 (stereo unspecified),110.0,108.0
Cc1ccc(NS(=O)(=O)c2ccc3c(c2)C(C(C)C)C(=O)N3)cc1C (stereo unspecified),103.0,107.0
Cc1ccc(-n2nc3c(N4CCC(C(=O)NC5CCCCC5)CC4)nnc(C)c3c2C)cc1,101.0,99.0

# Next section.
SMILES,PV pol inh,PV pol inh intensity
CCC(=O)Nc1ccccc1-c1nc2ccccc2n(CC(=O)Nc2ccccc2OC)c1=O,109.0,109.0
COc1cc(NS(=O)(=O)c2ccc3c(c2)OCC(C(=O)N2CCCC2)O3)cc(OC)c1 (stereo unspecified),103.0,102.0
Cc1ccc2nc(CN3CCN(S(=O)(=O)c4ccc(C(C)C)cc4)CC3)oc2c1,110.0,107.0
Cc1ccc(-n2c(=O)c3c(c4cc(C)ccc4n3C)n(Cc3ccc(F)cc3)c2=O)cc1,113.0,115.0
COc1ccc(OC)c(NS(=O)(=O)c2ccc3[nH]c4c(c3c2)CCCCC4)c1,110.0,114.0
COC(=O)c1ccc(Oc2nc3c(c(=O)n(C)c(=O)n3C)n2Cc2ccc(Cl)c(Cl)c2)cc1,103.0,105.0
O=C(C1CCN(S(=O)(=O)c2cccs2)CC1)N1CCN(c2ccccc2F)CC1,99.0,99.0
COc1ccccc1-n1ncc2c(=O)[nH]c(SCC(=O)Nc3cccc(F)c3)nc21,109.0,112.0
